PV pol inh: poliovirus RNA polymerase inhibition; P03300; poliovirus polymerase elongation, fluorescence polarization; active compounds read low; % elongation, % (compound at 16.7 µg/mL); 0.66% of 150,000 active; in the data active = % elongation below about 90%; also: some results filed as inactive read as strong as hits
Target sequence (P03300 1749-2209 limits assumed): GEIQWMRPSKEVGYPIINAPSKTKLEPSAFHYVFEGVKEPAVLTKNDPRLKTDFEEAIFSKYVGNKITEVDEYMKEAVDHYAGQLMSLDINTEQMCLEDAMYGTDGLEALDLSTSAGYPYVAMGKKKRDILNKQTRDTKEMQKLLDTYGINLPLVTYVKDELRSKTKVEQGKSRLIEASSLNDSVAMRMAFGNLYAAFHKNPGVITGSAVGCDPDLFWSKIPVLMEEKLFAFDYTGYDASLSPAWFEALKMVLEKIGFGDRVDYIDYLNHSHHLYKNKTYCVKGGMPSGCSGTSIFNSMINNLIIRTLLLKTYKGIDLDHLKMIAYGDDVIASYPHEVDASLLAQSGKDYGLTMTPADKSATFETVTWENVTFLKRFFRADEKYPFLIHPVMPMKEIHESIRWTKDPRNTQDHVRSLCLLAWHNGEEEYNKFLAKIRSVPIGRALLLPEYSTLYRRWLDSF
PV pol inh intensity: recorded beside PV pol inh, whose call it bears; % elongation; measured here: total intensity read-out; formula for this scale not given here;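 total fluorescence in place of polarization; lower means less elongation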
Active calls of the source: *. Some of the compounds tested. The share of hits here may be higher or lower than overall.

SMILES | PV pol inh | PV pol inh intensity
COc1cc(C2NC(=O)NC(C)=C2C(=O)Nc2cc(C)cc(C)c2)ccc1O (configuration not stated) | 113 | 113
Cc1ccc(Cn2cc3c(n2)-c2c(oc(C(=O)Nc4ccc(F)cc4F)c2C)CC3)cc1 | 111 | 112
Cc1nnc(N2CCN(c3ccc(Cl)cc3)CC2)c2c1nnn2Cc1ccc(F)cc1 | 110 | 107
Cc1ccc(Cl)cc1NC(=O)c1ccc(-c2nc(CSc3ccccc3)c(C)o2)cc1 | 114 | 116
Cc1ccc(-c2cc(C(=O)Nc3cc([N+](=O)[O-])ccc3C)no2)cc1F | 110 | 112
O=S(=O)(NCc1ccccc1)c1ccc2[nH]c3c(c2c1)CCCCC3 | 114 | 116
CCOc1ccccc1-n1c(C)nc2cc(C(=O)O)ccc21 | 105 | 111
O=C(NCc1ccccc1Cl)c1nnc(Cc2cccc(F)c2)o1 | 103 | 107
CCCc1cc(=O)[nH]c(Nc2cc(C)cc(C)c2)n1 | 108 | 92
COc1cc2c(cc1OC)C(COc1ccc3c(C)cc(=O)oc3c1)N(C(=O)c1ccccc1F)CC2 (configuration not stated) | 107 | 110
Cc1ccc(CSC2=Nc3ccccc3C3=NC(CCC(=O)NCc4cccs4)C(=O)N23)c(C)c1 (configuration not stated) | 111 | 102
COc1ccc(C2=CC(c3ccc(N(C)C)cc3)n3nnnc3N2)cc1 (configuration not stated) | 104 | 102
O=C(CSc1ncc2c(n1)-c1ccccc1N(Cc1ccc(F)cc1)S2(=O)=O)c1ccc(Br)cc1 | 105 | 109
COc1cccc(N2CCN(C(=O)c3ccc4c(=O)n(CCc5ccccc5)c(=O)[nH]c4c3)CC2)c1 | 111 | 113
O=C(/C=C/c1ccc(Cl)cc1)Nc1nc(-c2cccs2)ns1 | 99 | 103
Nc1c(C(=O)Nc2ccccc2Br)sc2nc(-c3cccs3)ccc12 | 120 | 145
CCOCN(C(=O)Cn1c(C)nc2ccccc21)c1c(C)cccc1CC | 110 | 105
CCCCn1cc(S(=O)(=O)c2ccc(OC)cc2)c(=O)c2cc(F)c(N3CCOCC3)cc21 | 107 | 106
CCOC(=O)CC(NC(=O)c1cc2cc(Br)cc(OC)c2oc1=O)c1ccc(OC)cc1 (configuration not stated) | 101 | 102
O=S(=O)(NCCc1nnc2ccc(SCc3ccccc3Cl)nn12)c1ccccc1 | 107 | 113
COc1ccccc1CNC(=O)CCCn1c(=O)c2ccccc2n(Cc2ccccc2C#N)c1=O | 100 | 102
COc1ccc(-c2cc3nc(C)c(CCC(=O)NC4CCCCC4)c(C)n3n2)c(OC)c1 | 119 | 110
CCc1ccc(-n2nc3ccc(NC(=O)c4cc5ccccc5o4)cc3n2)cc1 | 108 | 109
COC(=O)c1c(NC(=O)CCCOc2ccc(C)cc2)sc2c1CCCC2 | 95 | 93
Cc1ccc2[nH]c(=O)c3cc(C(=O)NCc4cccc(Cl)c4)sc3c2c1 | 106 | 109
COc1ccccc1-c1nnc(SCC(=O)c2ccc(Cl)cc2)n1-c1ccccc1 | 106 | 106
COc1cccc(CNC(=O)CSc2c3c(nc4ccc(Cl)cc24)CCCC3)c1OC | 106 | 111
N#Cc1ccccc1CSc1nnc2ccc3ccccc3n12 | 107 | 110
Cn1cnc(S(=O)(=O)N2CCC(C(=O)NCc3ccccc3Cl)CC2)c1 | 115 | 107
Cc1ccc(C)c(NC(=O)Cn2nnc(C(=O)NCc3ccccc3Cl)c2N)c1 | 101 | 102

Some of the entries so far, as comma-separated lines.
canonical_smiles,PV pol inh,PV pol inh intensity
Cc1ccc2[nH]c(=O)c3cc(C(=O)NCc4cccc(Cl)c4)sc3c2c1,106,109
COc1ccccc1-c1nnc(SCC(=O)c2ccc(Cl)cc2)n1-c1ccccc1,106,106

Later entries
SMILES | PV pol inh | PV pol inh intensity
CCc1ccccc1NC(=O)C1=C(C)C(=O)OC12CCCCCC2 | 109 | 113
CCc1ccccc1NC(=O)CCNS(=O)(=O)c1ccc2c(c1)CCCC(=O)N2 | 110 | 113
COc1cccc(CNC(=O)CN(c2ccc(C(C)C)cc2)S(=O)(=O)c2c(C)noc2C)c1 | 103 | 108
COc1cc(NC(=O)c2cc3cc4cc(OC)ccc4nc3o2)cc(OC)c1 | 108 | 107
COCCn1c(=N)c(C(=O)NCC2CCCO2)cc2c(=O)n3ccccc3nc21 (configuration not stated) | 112 | 113
Cc1ccccc1CN1C(=O)c2ccccc2Sc2ccc(C(=O)NCCc3ccccc3)cc21 | 105 | 107
O=C(NCC(c1ccco1)S(=O)(=O)c1cccs1)c1ccc(F)c(F)c1 (configuration not stated) | 111 | 114
Cc1ccccc1NC(=O)c1ccc(F)c(S(=O)(=O)N2CCc3ccccc3C2)c1 | 105 | 105
O=C(CC1N=C2c3ccccc3N=C(SCc3ccccc3F)N2C1=O)NCc1cccs1 (configuration not stated) | 107 | 113
O=C(Cn1c(=O)oc2cc(S(=O)(=O)N3CCCC3)ccc21)NCc1ccc(Cl)cc1 | 106 | 106

Among those listed so far, two have a cyano group:
SMILES | PV pol inh | PV pol inh intensity
COc1ccccc1CNC(=O)CCCn1c(=O)c2ccccc2n(Cc2ccccc2C#N)c1=O | 100 | 102
N#Cc1ccccc1CSc1nnc2ccc3ccccc3n12 | 107 | 110

(cont.)
SMILES | PV pol inh | PV pol inh intensity
O=C(NCCc1ccccc1)c1ccc2c(c1)N(Cc1ccccc1Cl)C(=O)c1ccccc1S2 | 105 | 112
CC(C)(C)c1ccc(C(=O)NC(Cc2c[nH]c3ccccc23)C(=O)OCC(=O)c2ccc(Br)cc2)cc1 (configuration not stated) | 106 | 107
Nc1nc(Nc2cccc(Cl)c2)sc1C(=O)c1ccc(F)cc1 | 110 | 111
Cc1cccc(-c2nc3c(cnn3-c3ccccc3)c(=O)n2-c2ccc(Br)cc2)c1 | 102 | 97
Cc1nn(CC(=O)N2CCCCC2)c(=O)c2cc3occc3n12 | 110 | 111
Cc1ccc(NC(=O)c2c(C)oc3ncnc(N4CCCCC4)c23)cc1Cl | 112 | 107
CCC(Cc1ccccc1)NC(=O)Cn1ncc2c3ccccc3n(Cc3ccc(F)cc3)c2c1=O (configuration not stated) | 108 | 104
CCc1ccccc1NC(=O)c1sc2nc3c(cc2c1N)CN(Cc1ccccc1)CC3 | 102 | 118
CCOC(=O)c1cc2c(=O)n3ccccc3nc2n(Cc2ccco2)c1=NC(=O)c1ccccc1OC | 105 | 113
COc1ccccc1-c1nc(S(=O)(=O)c2ccccc2)c(N2CCC(C)CC2)o1 | 106 | 109
CCCCNc1cc(NC2CCCCC2)c2c3c(onc13)-c1ccccc1C2=O | 117 | 114
CCc1ccccc1NS(=O)(=O)c1ccc2[nH]cc(C(=O)N3CCCCC3)c(=O)c2c1 | 104 | 100
CCOC(=O)c1[nH]c2ccccc2c1NC(=O)c1c(F)cccc1F | 98 | 97
CCc1nn(CC(=O)N(CC)Cc2ccccc2)c(=O)c2cc3occc3n12 | 102 | 108
CCC(=O)N1CCc2cc(Br)cc(S(=O)(=O)CCC(=O)Nc3ccc(CC)cc3)c21 | 103 | 104
COc1cc2c(C(=O)N3CCN(c4cc(Cl)ccc4C)CC3)cn(CC(C)C)c(=O)c2cc1OC | 102 | 103
CCc1nnc(NC(=O)CSCc2cc(=O)c3ccc(C)cc3[nH]2)s1 | 103 | 101
COc1ccc(-c2onc(C)c2C)cc1S(=O)(=O)NCc1cccs1 | 110 | 108
COc1cccc(N2CCN(C(=O)c3c(C)oc4ncnc(N5CCCCC5)c34)CC2)c1 | 99 | 100
CCOc1ccc(CCNS(=O)(=O)c2c(C)nc3sc(C)cn3c2=O)cc1OCC | 113 | 111
Cc1ccc(N2CC(NC(=O)c3ccc(S(=O)(=O)N4CCOCC4)cc3)CC2=O)cc1 (configuration not stated) | 107 | 109
CCOc1ccccc1CNC(=O)CN1C(=O)CCc2cc(S(=O)(=O)N3CCCCC3)ccc21 | 115 | 108
CCOC(=O)C1CCCN(C(=O)C2CCN(S(=O)(=O)c3c(C)noc3/C=C/c3ccccc3F)CC2)C1 (configuration not stated) | 109 | 102
CCCCCCNc1nc2c(c(=O)n(C)c(=O)n2C)n1Cc1cccc(C)c1 | 106 | 107
CC(C)Oc1ccc(CNC(=O)c2cc3ccccn3n2)cc1 | 110 | 110
CC(=O)Nc1ccc(S(=O)(=O)N(Cc2ccccc2)Cc2ccccc2)cc1 | 110 | 118
COc1ccc(NC(=O)c2oc3ccc(S(=O)(=O)N(C)C4CCCCC4)cc3c2C)cc1Cl | 110 | 110
CCOC(=O)N1CCN(C(=O)CN(c2cccc(Cl)c2)S(=O)(=O)c2ccccc2)CC1 | 101 | 103
CCOC(=O)c1cccc(NC(=O)c2cc(CN3CCCC3)on2)c1 | 104 | 101
Cc1ccc(NC(=O)Cn2c(SCc3cccc(F)c3)nc3ccncc32)c(C)c1 | 110 | 110

Single values from above:
In PV pol inh, COc1ccc(NC(=O)c2oc3ccc(S(=O)(=O)N(C)C4CCCCC4)cc3c2C)cc1Cl has 110
In PV pol inh, CCOC(=O)c1cccc(NC(=O)c2cc(CN3CCCC3)on2)c1 has 104
In PV pol inh, Cc1ccc(N2CC(NC(=O)c3ccc(S(=O)(=O)N4CCOCC4)cc3)CC2=O)cc1 (configuration not stated) has 107
In PV pol inh intensity, CC(=O)Nc1ccc(S(=O)(=O)N(Cc2ccccc2)Cc2ccccc2)cc1 has 118

Pulled by structure from the list above, two records:
SMILES | PV pol inh | PV pol inh intensity
CCOC(=O)c1cccc(NC(=O)c2cc(CN3CCCC3)on2)c1 | 104 | 101
CCOC(=O)C1CCCN(C(=O)C2CCN(S(=O)(=O)c3c(C)noc3/C=C/c3ccccc3F)CC2)C1 (configuration not stated) | 109 | 102

Following part:
SMILES | PV pol inh | PV pol inh intensity
Cc1cc(OCC(O)CN2CCN(c3cccc(Cl)c3)CC2)ccc1Cl (configuration not stated) | 105 | 106
COCCCn1c(=O)c2sccc2n2c(CCCC(=O)Nc3cccc(OC)c3)nnc12 | 109 | 112
CCOC(=O)c1ccc(CN(Cc2ccc(F)cc2)S(=O)(=O)c2cc(C(=O)Nc3ccccc3CC)ccc2F)cc1 | 115 | 109
COc1ccc(CNC(=O)C2CCN(S(=O)(=O)c3ccc4nc5c(c(C(=O)O)c4c3)CC(C)CC5)CC2)cc1 (configuration not stated) | 106 | 110
COc1ccccc1/C=C/c1nc(C#N)c(NC2CCCCC2)o1 | 101 | 94
CC(C)Oc1cccc(C(=O)Nc2ccc3oc(-c4ccccc4)nc3c2)c1 | 105 | 111
O=C(NCc1ccccc1)c1ccc2c(c1)nc1n2CCOC1 | 113 | 114
Cc1cccc(C(=O)Nc2cccc(C(=O)OCc3cc(=O)n4nc(C(C)C)sc4n3)c2)c1 | 101 | 97
O=C(Nc1ccc(Br)cc1)c1cccc(C(=O)Nc2ccc(Br)cc2)c1 | 105 | 115
COc1ccccc1-c1nc2n(n1)C(c1ccccc1Cl)C(C(=O)Nc1cccnc1)=C(C)N2 (configuration not stated) | 105 | 109
COc1ccc(-n2ccnc(NCc3ccc(C)cc3)c2=O)cc1OC | 114 | 118
COc1ccc(OC)c(S(=O)(=O)Nc2cc3c(cc2C)n(C)c(=O)c(=O)n3C)c1 | 106 | 110
COc1ccc(F)cc1NC(=O)C1CCN(c2nc(-c3ccc(OC)c(OC)c3)no2)CC1 | 95 | 96
COc1ccc(Cl)cc1Nc1nc2ccc(C(=O)c3ccccc3)cc2n2cnnc12 | 111 | 109
CC1CN(C(=O)Nc2ccc(C(=O)NCc3ccccc3F)cc2)c2ccccc2S1 (configuration not stated) | 108 | 105
COc1ccc(OC)c(NC(=O)C2CCN(S(=O)(=O)c3ccc(C)cc3)CC2)c1 | 105 | 109
COc1ccc(OC)c(C2C(C(=O)Nc3ccc(C)cc3C)=C(C)Nc3c(C(=O)Nc4ccc(F)cc4)cnn32)c1 (configuration not stated) | 107 | 107
COc1ccc(-c2nc(CSCC(=O)N3CCN(c4ccc(F)cc4)CC3)c(C)o2)cc1 | 100 | 101
CC(NC(=O)c1c2c(nc3ccccc13)C(=O)N(C1CCCCC1)C2)c1ccccc1 (configuration not stated) | 105 | 112
COc1ccc(Cn2nnc3c(=O)[nH]c(C4CCCN(C(=O)c5ccc(C)cc5)C4)nc32)cc1 (configuration not stated) | 106 | 108
CCS(=O)(=O)N1CC(=O)N(c2ccc(Cl)cc2C)C(C)(C(=O)NC2CCCCCC2)C1 (configuration not stated) | 101 | 107
COc1ccc(OC)c(C2c3c(oc4ccc(C)cc4c3=O)C(=O)N2CCCN(C)C)c1 (configuration not stated) | 103 | 105
Cc1ccc(CNc2ncnc3onc(-c4ccc(F)cc4)c23)cc1 | 102 | 98
O=C(Nc1cccc(Cl)c1)c1csnn1 | 98 | 101
CCOc1ccccc1NC(=O)Cn1cnc2sc(C)c(S(=O)(=O)N3CCC(C)CC3)c2c1=O | 108 | 108
COc1ccc(-c2cc(C(=O)Nc3c(C)nn(Cc4ccccc4C)c3C)no2)cc1 | 102 | 103
Cc1cc(Cl)ccc1NC(=O)CCS(=O)(=O)c1ccc2c(c1)CC(C)N2C(=O)C1CC1 (configuration not stated) | 115 | 108
COc1ccc(-c2cc(C(=O)Nc3cc(C)nn3-c3ccccc3)no2)cc1OC | 109 | 112
COc1ccc2c(c1)CCc1c(C(=O)Nc3cnn(Cc4ccc(Cl)cc4Cl)c3)noc1-2 | 103 | 102
CC(C)c1ccc(NC(=O)CN2C(=O)COc3ccc(S(=O)(=O)Nc4ccccc4)cc32)cc1 | 100 | 101
COC(=O)C(CCSC)NC(=O)c1cc2c(n(-c3ccccc3)c1=O)CC(C)(C)CC2=O (configuration not stated) | 106 | 108
CCn1c(=O)c2sccc2n2c(CCCC(=O)N3CCN(c4ccccc4OC)CC3)nnc12 | 116 | 123
CC1CCc2c(sc(NC(=O)COc3ccccc3)c2C(=O)Nc2ccccc2Cl)C1 (configuration not stated) | 104 | 94
